KCNQ2 inh = KCNQ2 channel blockers in CHO-K1 cells – cell-based, FluxOR thallium flux, B-score, primary screen (AID 2156) | 20 min; stronger effect = lower value; only compounds with negative scores are shown here; some inactives read as strong as hits | B-score at 10 µM | 310,000 compounds, 1.1% hits;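 active means fluorescence ratio B-score at most minus 3 library SDs, with starting brightness B-score within 2 library SDs, cut at about -5.5 in these data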
Target sequence (O88943 whole entry, looked up): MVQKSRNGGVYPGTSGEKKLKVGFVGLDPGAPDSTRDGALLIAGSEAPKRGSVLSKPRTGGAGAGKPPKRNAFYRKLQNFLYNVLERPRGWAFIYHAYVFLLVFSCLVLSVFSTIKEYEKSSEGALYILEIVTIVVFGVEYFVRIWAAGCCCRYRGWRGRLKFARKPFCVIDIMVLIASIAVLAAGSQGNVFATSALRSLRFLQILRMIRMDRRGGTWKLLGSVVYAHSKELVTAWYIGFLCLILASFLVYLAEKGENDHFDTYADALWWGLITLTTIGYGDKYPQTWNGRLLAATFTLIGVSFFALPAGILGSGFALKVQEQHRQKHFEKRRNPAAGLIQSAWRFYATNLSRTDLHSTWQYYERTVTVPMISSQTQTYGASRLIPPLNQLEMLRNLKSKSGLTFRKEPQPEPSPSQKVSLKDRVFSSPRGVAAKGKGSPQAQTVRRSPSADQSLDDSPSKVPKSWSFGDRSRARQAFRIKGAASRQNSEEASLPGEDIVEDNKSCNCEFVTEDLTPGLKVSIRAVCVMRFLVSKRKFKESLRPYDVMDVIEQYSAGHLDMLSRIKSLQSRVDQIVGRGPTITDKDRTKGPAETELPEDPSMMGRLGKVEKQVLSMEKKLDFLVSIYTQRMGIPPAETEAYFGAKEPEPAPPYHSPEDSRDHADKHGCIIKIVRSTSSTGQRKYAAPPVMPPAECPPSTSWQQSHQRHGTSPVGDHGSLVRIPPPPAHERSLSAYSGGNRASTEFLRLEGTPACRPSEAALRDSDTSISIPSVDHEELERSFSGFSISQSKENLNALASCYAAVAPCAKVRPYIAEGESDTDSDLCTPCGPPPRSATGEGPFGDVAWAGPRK
KCNQ2 inh baseline = further read-out of KCNQ2 inh, marked with its call; B-score; measured here: initial fluorescence intensity artifact check;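 brightness before thallium and not channel activity; 0 = typical well and far values either way flag optical interference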
Starred values were filed as active, the others as inactive; i = inactive.

Results follow in this order: KCNQ2 inh, KCNQ2 inh baseline
> COc1cccc(N2CCN(C(=O)c3c(C)nn(-c4ccccc4)c3C)CC2)c1
→ i, 0.04
> COc1cccc2c3c(c(C)nc12)CC(C)O3 (stereo not drawn)
→ i, 2.26
> CCCCN(C(=S)Nc1cccc(C)c1C)c1c(N)n(CCC)c(=O)[nH]c1=O
→ i, 5.21
> CC1Oc2ccccc2C=C1/C=C1/SC(N2CCOCC2)=NC1=O (stereo not drawn)
→ i, -0.44
> O=C(Nc1cccc(Cl)c1)NC1CCN(C2CCCCC2)C1 (stereo not drawn)
→ i, 1.71
> OC(CNCc1ccc(Cl)cc1)(c1ccccc1)c1ccc(F)cc1 (stereo not drawn)
→ -7.2*, 0.95*
> COc1ccc(N2CCN(C(=O)/C=C/c3ccco3)CC2)cc1
→ i, 0.54
> O=C(O)C1Cc2ccccc2CN1C(=O)CSc1nnc2ccccn12 (stereo not drawn)
→ i, -0.74
> O=C(Nc1ccccc1C(F)(F)F)c1ccccc1Br
→ i, -1.02
> O=C(Cn1c(O)c(/C=C2\C=Nc3ccccc32)sc1=O)N1CCOCC1
→ i, 1.28
> CCOC(=O)C1=C(C)N(CCCC(=O)O)C(=O)NC1c1cccs1 (stereo not drawn)
→ i, -0.52
> COc1cc(OC)cc(C(=O)N2CCN(C3CCN(Cc4ccccc4)CC3)CC2)c1
→ i, 2.75
> Cc1cc(CSC(=N)N)c(CSC(=N)N)cc1C
→ i, -0.63
> O=C(NC1CCCCC1)C1CCCN1C(=O)Nc1ccccc1 (stereo not drawn)
→ i, -1.96
> COc1ccc(/C=N/NC(=O)C2CCN(c3ncc(C(F)(F)F)cc3Cl)CC2)cc1
→ i, -0.16
> CCOC(=O)c1cnc(SCC(=O)c2ccc(Cl)cc2)nc1N
→ i, 2.6
> COc1cc(NC2c3ccccc3C(=O)N2Cc2ccc3c(c2)OCO3)cc(OC)c1 (stereo not drawn)
→ i, -0.9
> Cc1ccc(S(=O)(=O)N(C)C)cc1NC(=O)COC(=O)Cc1ccc(Br)cc1
→ i, -0.41
> O=C(NCCCCCNC(=O)c1ccco1)c1ccco1
→ i, -1.14
> CCOc1ccc(C(=O)NCC(=O)OCc2cc([N+](=O)[O-])cc3c2OCOC3)cc1OCC
→ i, 0.33
> Cc1cccc(N(CC(=O)NCc2ccc3c(c2)OCO3)C(=O)CCC(=O)Nc2ccccn2)c1C
→ i, 0.05
> Cc1ccc(NC(=O)COC(=O)/C=C/c2cccs2)cc1
→ i, 0.66
> O=C(c1cc(COc2ccc(F)cc2F)on1)N1CCCC(c2ccccc2)C1 (stereo not drawn)
→ i, 0.02
> CCN(CC)C(=O)c1ccc(-c2cccs2)s1
→ i, 0.95
> Cc1cccc(N(C(=O)CNC(=O)c2ccco2)C(C(=O)NC2CCCC2)c2cccnc2)c1 (stereo not drawn)
→ i, -0.42
> CCOC(=O)c1cc(C#N)c(Oc2ccccc2OC)nc1-c1ccccc1
→ i, -0.37
> O=C(c1ccc2c(c1)OCO2)C1CCCN(Cc2cn[nH]c2-c2cccc(F)c2)C1 (stereo not drawn)
→ i, 0.99
> CC1(C)CC(NC(=O)c2cccc(F)c2)CC(C)(C)N1
→ i, 1.16
> CC1(C)Cc2ccccc2-c2nc(NCCCO)[nH]c(=O)c21
→ i, 0.18
> COc1ccc(CC(=O)NNC(=O)c2ccncc2)cc1
→ i, 1.62
> CC(C)C[C@@H](C(=O)N[C@@H](C(=O)O)c1ccccc1)N1C(=O)N2CCc3c([nH]c4ccccc34)[C@@]2(C)C1=O
→ i, -0.22
> Cc1ccc(NC(=O)N(Cc2cccnc2)Cc2ccco2)cc1C
→ i, -0.83
> CCOc1ccccc1NC(=S)NC(=O)CCCOc1ccc(Cl)cc1Cl
→ i, -0.1
> Cc1cc(N2CCN(S(=O)(=O)c3ccc(C)c(C)c3)CC2)c2ccccc2n1
→ i, 1.81
> O=C(N/N=C/c1cccc([N+](=O)[O-])c1)c1ccc(COc2ccccc2-c2ccccc2)cc1
→ i, 0.15
> Cn1cccc1-c1nc2ccc(NC(=O)c3cccs3)cc2[nH]1
→ i, -1.2
> O=C(O)CCCNC(=O)CC1S/C(=N/N=C/c2ccccc2O)NC1=O (stereo not drawn)
→ i, 0.08
> O=C(CSc1ccc(Cl)cc1)N1CCN(c2ncc(C(F)(F)F)cc2Cl)CC1
→ i, -1.39
> CN(c1ccc(OCC(=O)OCC(=O)NC2CCCC2)cc1)S(=O)(=O)c1ccc2ccccc2c1
→ i, -1.71
> Cc1cc(Br)ccc1NC(=O)CNC(=O)Cn1ncc(Cl)c(Cl)c1=O
→ i, 1.42
> COc1ccc(N2CCN(C(=O)c3ccccc3N(C)S(=O)(=O)c3ccc(C)cc3)CC2)cc1
→ i, 0.74
> CC1CCCN(c2nc3c(c(=O)n(C)c(=O)n3C)n2CCSc2nc3ccccc3s2)C1 (stereo not drawn)
→ i, -0.26
> COc1cccc(C(=O)Nc2nnc(S(=O)(=O)N(C)c3ccccc3)s2)c1
→ i, -1.57
> Cc1ccc(COc2cccc(/C=N/NC(=O)c3nnn(-c4nonc4N)c3C)c2)cc1
→ i, -0.06
> CC(=O)NCC(=O)N(c1c(C)n(C)n(-c2ccccc2)c1=O)C1(C(=O)NC2CCCC2)CCCCC1
→ i, 1.14
> CCN(CC)CCCNC(=O)c1cc(-c2ccc3c(c2)OCO3)on1
→ i, -1.02
> CCOC(=O)C1(Cc2ccccc2)CCN(Cc2ccon2)CC1
→ i, -1.13
> OC(CNCCc1ccc(C(F)(F)F)cc1)COc1cccc2ccccc12 (stereo not drawn)
→ -7.1*, 0.34*
> CCCOc1cccc(C2C(C(=O)c3ccco3)=C(O)C(=O)N2c2nnc(C)s2)c1 (stereo not drawn)
→ i, 3.14
> CCOC(=O)CSc1nnc(CSc2nc3sc4c(c3c(=O)[nH]2)CCC4)n1-c1ccccc1
→ i, 2.2
> c1cncc(-c2nc3ccccc3[nH]2)c1
→ i, -1.49
> Cc1cc(NC(=O)C2CC2)ncc1NC(=O)C12CC3CC(CC(C3)C1)C2
→ i, -0.16
> Cc1ccc(S(=O)(=O)N2CCC3(CC2)OCCN3S(=O)(=O)c2c(C)cc(C)cc2C)cc1
→ i, 0.05
> O=C(C[n+]1cc(Br)cc2ccccc21)c1ccc(F)cc1
→ i, -0.21
> COc1ccc(CNS(=O)(=O)c2cc3c4c(c2)CCN4C(=O)CC3)cc1
→ i, 0.47
> COc1ccccc1CNC(=O)COc1ccc(C)cc1
→ i, 0.01
> CCOc1ccc(C(=O)NCC(=O)NCCCn2nc(C)cc2C)cc1OCC
→ i, 0.73
> COc1ccc(Cl)cc1C(=O)NNC(=S)NC(=O)/C=C/c1ccco1
→ i, -0.67
> C=CCOC(=O)C1=C(C)NC(=O)NC1c1ccc(OCC)cc1 (stereo not drawn)
→ i, 1.07
> COc1ccc(C(C)=O)cc1COC(=O)c1cccnc1SC
→ i, -0.32

2 consecutive compounds already listed, for reference:
Results follow in this order: KCNQ2 inh, KCNQ2 inh baseline
> C=CCOC(=O)C1=C(C)NC(=O)NC1c1ccc(OCC)cc1 (stereo not drawn)
→ i, 1.07
> COc1ccc(C(C)=O)cc1COC(=O)c1cccnc1SC
→ i, -0.32

Following part
Results follow in this order: KCNQ2 inh, KCNQ2 inh baseline
> COc1ccccc1C1=NC(c2ccc(C)cc2)N=C1C (stereo not drawn)
→ i, -0.53
> Cc1ccc(-c2csc(N3CCC(NS(=O)(=O)c4ccc5c(c4)OCCO5)CC3)n2)cc1
→ i, 0.18
> COc1ccc(C)cc1N(CC(=O)NCCN1CCOCC1)S(=O)(=O)c1ccccc1
→ i, 1.61
> O=C(COc1ccc([N+](=O)[O-])cc1)Nn1cnnc1
→ i, -1.11
> CC1CCN(c2nc(Cl)nc(Nc3ccc([N+](=O)[O-])cc3)n2)CC1
→ i, 1.66
> O=c1n(Cc2ccccc2Cl)nc2n1-c1ccccc1SC2
→ i, -0.5
> O=C(NCCCN1CCCC1)c1ccc(CS(=O)(=O)c2ccc(Cl)cc2)o1
→ i, 3.2
> Cc1ccc(NC(=O)CNC(=O)c2ccccc2F)cc1Cl
→ i, -1.4
> N#C/C(=C(/O)c1cccc(F)c1)c1nc2ccccc2s1
→ i, -1.62
> CCn1c(SCC(=O)NCc2ccco2)nnc1-c1ccncc1
→ i, 0.26
> CC(C)CC1Nc2ncnc(N3CCN(c4ccccn4)CC3)c2N(Cc2ccc(Br)cc2)C1=O (stereo not drawn)
→ i, -0.23
> O=C(Oc1ccc2[nH]cc(CCN3C(=O)c4ccccc4C3=O)c2c1)c1ccco1
→ i, -2.35
> Cc1cc(Oc2nnnn2-c2ccccc2)ccc1Cl
→ i, -0.02
> O=C(Cn1cncn1)NCc1cccc(C(F)(F)F)c1
→ i, 1.07
> O=C(NNC(=O)C1CCN(S(=O)(=O)c2cccc(Cl)c2)CC1)C1CC1
→ i, -1.13
> CCOc1ccc(Cc2onc3c2C(=O)CCC3)cc1OCC
→ i, 1.23
> C/C(=N\NC(=O)CC#N)c1cc2ccc(O)cc2oc1=O
→ i, 0.09
> CCOC(=O)CNc1c(-c2ccccc2)nc2ccc(Cl)cn12
→ -7.04*, -1.22*
> CC1C/C(=N\NC(=S)NCc2ccccc2)CC(C)(C)C1 (stereo not drawn)
→ i, -0.02
> CC(C)CN1C(=O)NC(NC(=O)c2cccs2)(C(F)(F)F)C1=O (stereo not drawn)
→ i, 0.47
> CC1CC(=O)N(CC(=O)NCc2ccc3c(c2)OCO3)c2ccccc2S1 (stereo not drawn)
→ i, 1.33
> Cc1cc(C)cc(NC(=S)N2CCN(C(=O)c3ccco3)CC2)c1
→ i, -0.86
> CCn1c(SCC(=O)NCCc2ccccc2)nnc1C(C)C
→ i, 0.06
> COc1cscc1C(=O)O
→ i, -0.1
> Cn1c(CNc2ccc(O)cc2)nc2ccccc21
→ i, 0.67
> C[C@H]1COC2=C1C(=O)C(=O)c1c2ccc2c1CCCC2(C)C
→ -6.2*, -1.55*
> CCSc1nc2n(n1)C(c1cccc(F)c1)C1=C(CCCC1=O)N2 (stereo not drawn)
→ i, 0.62
> COc1cc(OC)cc(C(=O)N[C@H](C(=O)OCC(=O)Nc2sccc2C#N)C(C)C)c1
→ i, -0.88
> COCCN(C(=O)c1ccco1)C(C(=O)NC1CCCC1)c1cccs1 (stereo not drawn)
→ i, -1.59
> CCn1ncc(/C=N/NC(=O)c2ccc3c(c2)OCO3)c1C
→ i, -0.09

Looked up above.
Under KCNQ2 inh baseline, CCOc1ccc(Cc2onc3c2C(=O)CCC3)cc1OCC has 1.23
Under KCNQ2 inh baseline, CC(C)CN1C(=O)NC(NC(=O)c2cccs2)(C(F)(F)F)C1=O (stereo not drawn) has 0.47
Under KCNQ2 inh baseline, COc1cscc1C(=O)O has -0.1
Under KCNQ2 inh baseline, CCSc1nc2n(n1)C(c1cccc(F)c1)C1=C(CCCC1=O)N2 (stereo not drawn) has 0.62

(continued)
Results follow in this order: KCNQ2 inh, KCNQ2 inh baseline
> CC1(c2ccc3ccccc3c2)NC(=O)N(CC(N)=O)C1=O (stereo not drawn)
→ i, -0.2
> Cc1ccc(-c2csc3nc(C)n(-n4c(C)ccc4C)c(=O)c23)o1
→ i, 0.03
> CN(Cc1ccccc1)C1(CNC(=O)CCC(F)(F)F)Cc2ccccc2C1
→ i, 0.51
> CCCCCc1cc(=O)oc2c(C(CCN3CCCC(C)C3)c3ccc4c(c3)OCO4)c(OC)cc(OC)c12 (stereo not drawn)
→ i, 1.86
> O=C(c1cc(COc2ccc(F)cc2Cl)on1)N1CCCCCC1
→ i, 0.07
> CCC1CCCCN1CCCNC(=O)c1ccc(CS(=O)(=O)Cc2ccc(Cl)cc2)o1 (stereo not drawn)
→ i, 0.26
> COc1ccc(NS(=O)(=O)c2ccc(C)c(C(=O)NCC(c3ccco3)N(C)C)c2)cc1 (stereo not drawn)
→ i, -0.13
> O=C(Cc1ccc(F)cc1)c1ccc(O)cc1O
→ i, 1.5
> O=C(CCN1C(=O)C2C3CCC(C3)C2C1=O)Nc1cccc(Cl)c1 (stereo not drawn)
→ i, -1.88
> Cc1noc(C)c1COc1ccc(C(=O)NNC(=O)c2ccccc2O)cc1
→ i, 0.89
> O=C(CN(C(=O)Cn1nnc(-c2ccc(F)cc2)n1)C1CCCC1)NC1CCCC1
→ i, 0.22
> COc1ccc(OC)c(CNn2c(-c3cccc(C)c3)nc3ccccc3c2=O)c1
→ -5.69*, 0.34*
> CCO/N=C/c1ccc(OC)c(Oc2nc(OC)cc(OC)n2)c1
→ i, -0.19
> COc1ccc(/C(N)=N/OC(=O)Cc2ccc(C)cc2)cc1OC
→ i, -0.04
> COc1ccccc1CC(=O)Nc1ccc2c(c1)CCC2
→ i, 2.07
> COCn1c(-c2ccccc2)nc2ccccc21
→ i, -0.03
> COc1ccccc1-c1nc(C(=O)NCC2CCCO2)cc2c1[nH]c1ccccc12 (stereo not drawn)
→ i, 1.03
> O=C(O)COc1ccc(/C=N/O)cc1Br
→ i, 0.72
> CCC(C)Nc1nc(N)c([N+](=O)[O-])c(Nc2cc(OC)ccc2OC)n1 (stereo not drawn)
→ i, -0.25
> c1ccc(CCC2=NCCn3cccc32)cc1
→ i, -0.65
> O=C(Cn1c(=O)c2c(ncn2Cc2ccccc2)n(Cc2ccccc2)c1=O)NC1CC1
→ i, 0.67
> CN(C)c1nc2sc3c(c2c(=O)n1C)CC(C)(C)OC3
→ i, 0.33
> CCOC(=O)N1CCc2c(sc(N)c2C#N)C1
→ i, 0.75
> CCCCn1c(CCNC(=O)c2cccs2)nc2ccccc21
→ i, -0.05
> O=C(Nc1cccc(F)c1)NC1CCCCCCC1
→ i, -0.51
> Cc1ccccc1C(=O)NC(=S)NCc1ccccc1
→ i, -0.24
> CCOC(=O)C1CCN(S(=O)(=O)c2cccc(-c3cn4cc(C)ccc4n3)c2)CC1
→ i, -0.5
> COCC(=O)Nc1cccc(C(F)(F)F)c1
→ i, 2.3
> CC(=O)N1c2ccc(S(=O)(=O)N(C)Cc3ccco3)cc2CC1C (stereo not drawn)
→ i, -0.85

Single records (already shown).
O=C(Cn1c(=O)c2c(ncn2Cc2ccccc2)n(Cc2ccccc2)c1=O)NC1CC1 is entered as KCNQ2 inh = i; KCNQ2 inh baseline = 0.67
CN(C)c1nc2sc3c(c2c(=O)n1C)CC(C)(C)OC3 is entered as KCNQ2 inh = i; KCNQ2 inh baseline = 0.33

High-throughput results (PubChem)

Not all compounds are listed, so the mix of outcomes need not match the whole.
